# GLA inh pH 4.5: blocks human alpha-galactosidase A at pH 4.5. P06280. purified enzyme, 4-MU-alpha-Gal fluorescence, pH 4.5. activity change, negative = inhibition, % at 105 µM. 230,000 tested, under 10 active. AID 1467; inconclusive = small, poorly fitted or top-dose-only inhibition, or a rising curve; inactive = flat fitted curve, though single readings scatter; no compound was filed as active;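 note: 0% = full activity with enzyme and -100% = basal without enzyme; dose as in the result columns while the protocol names 77 µM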
# Rango complex inh: inhibitors of Rango-importin beta complex formation; Q14974; Rango CFP/YFP FRET sensor + importin beta, 45 min; Potency, µM (doses to about 92.2 µM), inactives show at the highest dose inhibition of complex formation; 0.031% of 340,000 active; AID 540263; active = rising FRET ratio curve, often small or poorly fitted; inconclusive = mostly compound fluorescence or quenching in the first reads; inactive = flat curves in all reads;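 note: potency is the fitted concentration of half-maximal effect; 0% = DMSO wells and 100% = buffer wells lacking importin beta; nearly all actives have a fitted effect of over 15% in size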
# Target sequence (Q14974 whole entry, looked up): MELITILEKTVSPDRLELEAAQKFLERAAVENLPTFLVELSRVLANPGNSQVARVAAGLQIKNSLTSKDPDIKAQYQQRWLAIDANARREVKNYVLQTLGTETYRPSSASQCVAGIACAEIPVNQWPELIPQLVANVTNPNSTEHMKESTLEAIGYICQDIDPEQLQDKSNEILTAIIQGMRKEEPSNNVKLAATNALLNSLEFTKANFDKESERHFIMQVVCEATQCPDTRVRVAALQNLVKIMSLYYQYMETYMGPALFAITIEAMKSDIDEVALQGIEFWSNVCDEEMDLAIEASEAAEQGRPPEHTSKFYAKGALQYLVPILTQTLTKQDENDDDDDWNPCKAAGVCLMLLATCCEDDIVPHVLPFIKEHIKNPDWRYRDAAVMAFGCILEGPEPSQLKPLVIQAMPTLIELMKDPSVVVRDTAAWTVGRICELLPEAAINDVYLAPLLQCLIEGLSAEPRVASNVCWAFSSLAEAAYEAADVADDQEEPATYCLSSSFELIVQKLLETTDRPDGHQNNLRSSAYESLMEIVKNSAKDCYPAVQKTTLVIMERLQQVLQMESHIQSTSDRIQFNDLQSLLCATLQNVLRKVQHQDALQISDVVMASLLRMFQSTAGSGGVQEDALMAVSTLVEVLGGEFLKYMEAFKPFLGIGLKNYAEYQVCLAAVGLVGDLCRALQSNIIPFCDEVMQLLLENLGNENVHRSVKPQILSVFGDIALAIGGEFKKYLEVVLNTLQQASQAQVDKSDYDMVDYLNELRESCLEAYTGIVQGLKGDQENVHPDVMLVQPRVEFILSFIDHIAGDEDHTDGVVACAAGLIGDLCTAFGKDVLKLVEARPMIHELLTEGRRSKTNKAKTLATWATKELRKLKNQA
#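 Inhibition scored from the CFP 486 nm/YFP 530 nm FRET ratio 45 min after adding 0.125 microM importin beta to 50 nM Rango biosensor preincubated 5 min with compound (room temperature, PBS with DTT, Tween-20, BSA). No-importin wells as positive control.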
# miR-21 reporter: raises the signal of a miR-21 reporter. HeLa miR-21 FLuc reporter, luciferase, 48 h. 340,000 tested, under 10 active. AID 2288. Potency, µM (doses to about 38.3 µM), for inactives: at the highest dose reporter change, positive = more light; active = well fitted rising curve with a large enough effect; inconclusive = small, poorly fitted or top-dose-only effect; inactive = no such curve, though single readings can be large or run the other way;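 note: % of control where 0% means no effect; miR-21 action dims this reporter so a rising signal means less miR-21 action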
#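 HeLa cells endogenously expressing miR-21, stably carrying CMV-driven firefly luciferase with a downstream miR-21 binding site, 2000 cells/well. Titrations up to approximately 40 uM, 48 hours; luciferase luminescence read.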
# Rango release inh: inhibition of RanGTP-driven Rango-importin beta dissociation. O95149+P62826. Biochemical FRET Rango-importin beta, RanGTP-induced dissociation. Potency, µM (highest dose often 46.1 µM), without a hit: at the top dose activity change, negative = inhibition. 0.071% of 340,000 active. AID 540253; active means falling FRET ratio curve, often poorly fitted, with flat reads before Ran was added; inconclusive means other falling curves, or compound fluorescence or quenching; inactive means flat or rising ratio curve;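 note: potency is the fitted concentration of half-maximal effect; % of control where 0% means no effect; nearly all actives have a fitted effect of over 45% in size; -100% = wells without RanGTP and RCC1; the record marks most hits as doubtful in a second field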
#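 Compounds preincubate 5 min with complex of recombinant Rango and importin beta in PBS with 1 mM DTT. Ran (0.6 uM) loaded with 2 mM GTP plus 0.2 uM RCC1 starts dissociation; FRET is recorded 45 min later.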
# Active calls of the source: *; ? = inconclusive; · = no result given; & = joins results of further samples; [ ] = dose if it differs, or a comment.
# Below each SMILES – GLA inh pH 4.5, Rango complex inh, miR-21 reporter, Rango release inh
- COc1ccc(C(=O)Nc2cccc(C(=O)N3CCCCC3)c2)cc1
    ·, -0.7%, -3%, -7%
- CCc1nn(CCCC(=O)NCc2ccc(OC(C)C)cc2)c(=O)c2cc3occc3n12
    ·, -0.2%, 18%&20%, 29%
- COc1ccc2ncc(OC(C)=O)cc2c1
    -15, -5.8%, -31%, -13%
- COc1ccccc1CC(=O)Nc1ccc(S(=O)(=O)N2CCN(C)CC2)cc1
    ·, 3.5%, 1%, -3%
- COCC(C)N=CC1=C(O)CC(C)(C)CC1=O (stereo unspecified)
    -1, -2.9%, -3%, -9%
- CCCCCCCNC(=O)C1(CC2CC(c3ccccc3)=NO2)CCNCC1 (stereo unspecified)
    ·, 1.6%, ·, 1%
- Cc1cc(C(=O)NC(=S)Nc2cccc(NC(=O)C(C)C)c2)ccc1[N+](=O)[O-]
    -1, 0.2%, -22%, 22%
- Cc1ccc(C(=O)c2coc3c2C(=O)C(=O)c2ccccc2-3)cc1
    -6, ?, -27%, -1%
- COc1ccc(N(C(=O)COc2ccc(C)cc2)S(=O)(=O)c2ccc(C)cc2)cc1
    -15, 2.9%, -11%, -4%
- Cc1ccc(C)c(-n2nnnc2SCC(=O)NNC(=O)c2ccco2)c1
    -2, 0.3%, 4%, 21%
- CCCN1CCN(C(=O)C2CCN(c3ncnc4c3nc3n4CCCCC3)CC2)CC1
    ·, -0.9%, -1%, -18%
- COC(=O)C1CCN(C(=O)COC(=O)/C=C/c2ccc(O)c(OC)c2)CC1
    ·, ?, ·, -9%
- COc1ccccc1CNC(=S)Nc1ccc2nc(N3CCN(C)CC3)cc(C)c2c1
    -8, -0.1%, 11%, 1%
- COc1ccc(N(CC(=O)Nc2ccccc2F)S(=O)(=O)c2ccc(C)c([N+](=O)[O-])c2)cc1
    -1, 1.2%, -2%, 1%
- Cc1ccc(NC(=O)CN2C(=O)N/C(=C\c3cccnc3)C2=O)cc1
    5, ?, 0%, -8%
- O=[N+]([O-])c1cccc(S(=O)(=O)c2ccc(NCCOCCO)c([N+](=O)[O-])c2)c1
    ·, -0.2%, -1%, 2%
- O=c1cc(CN2CCN(Cc3ccccc3)CC2)c2cc(Cl)ccc2o1
    6, 7.0%, -9%, -3%
- CCC1=C(OC(=O)N(CC)CC)N2C(=O)OC(=NCCc3c[nH]c4ccccc34)[C@]2(Cc2ccccc2)[C@H]2C1=CC[C@H]1C(=O)N(CC(=O)OC)C(=O)[C@H]12
    -9&-5, 3.0%, 20%, -8%
- C=CCn1c(=O)c(C(=O)Nc2ccc(C)cn2)c(O)c2ccccc21
    ·, 2.0%, -14%, 1%
- CCCCNC(=O)Cn1cnc2sc(C)c(S(=O)(=O)N3CCN(c4ncccn4)CC3)c2c1=O
    -6[21.1 µM], ?, -3%, 0%
- O=C(c1ccccc1)N1CCn2c1nc1ccccc12
    -3, -0.9%, -4%, 3%
- CNC(=O)c1c2c(nc3ccc(Br)cc13)CCCC2
    3, -0.2%, -2%, 1%
- O=C(COC(=O)c1cccs1)Nc1ccccc1C(F)(F)F
    1, -0.1%, 1%, -12%
- CC(C)Nc1nc(-c2cccnc2)nc(-c2ccccc2)c1C#N
    ·, 0.6%, 0%, -2%
- COc1ccc(-c2c(NC(=O)CC(C)C)n(C)c3ccccc3c2=O)cc1OC
    ·, 0.9%, -3%, -6%
- Cc1ccc(C(=O)C2=C(O)C(=O)N(c3ncccn3)C2c2ccc(F)cc2)o1 (stereo unspecified)
    ?, ?, 1%, ?
- COc1ccc(/C=N/NC(=O)c2cccc(NC(=O)c3ccccc3Cl)c2)c(OC)c1
    -1, 0.2%, -19%, -1%
- COc1ccc(-n2cc(-c3ccc(Cl)cc3)[nH]c2=S)cc1
    -5, -0.7%, -25%, 12%
- CC(=O)c1c(C)[nH]c(C(=O)CSc2nnc(-c3cccs3)n2Cc2ccccc2)c1C
    -8, 1.9%, 17%, 3%
- COc1ccc(C)cc1N(C(=O)c1ccccc1)c1nc2ccccc2s1
    -10, -0.3%, -4%, -15%
- Cc1ccc(NC(=O)CN2C(=O)NC(C)(CC(C)C)C2=O)cc1F (stereo unspecified)
    ·, 0.4%, ·, 1%
- CCCNC(=O)/C=C/c1ccc(S(=O)(=O)Nc2ccccc2OC)cc1
    -10, 3.2%, 0%, 3%
- Cc1cc(C)c(C(=O)CSc2nnc(N)s2)c(C)c1
    3, 1.7%, -7%, -5%
- COc1ccc(-c2cc(C(=O)Nc3c(C)nn(Cc4ccc(Cl)cc4)c3C)no2)cc1
    1, -1.7%, -1%, -19%
- COc1ccccc1C(=O)N/N=C/c1ccc(Cl)s1
    4, 0.6%, -35%, -9%
- CC(=O)N(CC(C)(C)CC=C(C)C)c1ccccc1
    -7, ·, 0%, ·
- CCOC(=O)C1(C)C=C(Nc2ccc(O)cc2)C(=O)N1c1ccc(O)cc1 (stereo unspecified)
    -3, 0.3%, 4%, 4%
- O=C1NN(c2ccc(Br)cc2)C(=O)/C1=C\c1ccc(O)cc1O
    ·, ?, -13%, ?
- O=C(/C=C/c1cccc(Cl)c1)N1CCC(Cc2ccccc2)CC1
    0, 5.1%, -43%, -6%
- Cc1onc(-c2c(F)cccc2Cl)c1C(=O)N1CCCc2ccccc21
    -2, 0.4%, 20%, 10%
- N#Cc1ccc(C(=O)Nc2nnc(-c3ccco3)o2)cc1
    -13, 0.2%, 1%, 3%
- COc1ccc(S(=O)(=O)N(CC(=O)NCc2ccco2)c2ccccc2)cc1OC
    -3, 0.4%, -7%, 10%
- Cc1ccccc1N1CCN(c2ncnc3scc(-c4cccs4)c23)CC1
    ?, 1.8%, -6%, -9%
- COc1ccc(NC(=O)c2cnc(NS(=O)(=O)c3ccccc3)nc2)cc1
    ·, 1.3%, -2%, 3%
- CCOC(=O)C1=CN(Cc2ccco2)S(=O)(=O)N(C)C1c1ccc(C(F)(F)F)cc1 (stereo unspecified)
    ·, -1.4%, ·, -7%
- CN1CCC2(CC1)NC(=O)NC2=O
    12, 0.5%, -8%, 3%
- CCOC(=O)c1nn(-c2ccccc2)c(C#N)c1NC(=O)c1nn(CC)cc1Br
    7, -2.9%, -6%, 3%
- O=C(O)c1ccc(COc2ccc(Cl)cc2)o1
    -3, -0.2%, -29%, 3%
- Nc1cc(OCc2ccccc2)ccc1OCc1ccccc1
    ·, -1.0%, ·, -2%
- Cc1ccc(NC(=O)C(=O)NCc2ccco2)c(C)c1
    -4, 2.7%, -42%, -13%
- Cc1ccc(-c2nc(SCC(=O)Nc3cc(S(=O)(=O)N4CCCCC4)ccc3Cl)n[nH]2)cc1
    2, 0.1%, 4%, 7%
- C=CCC(O)(CCN1CCCCC1)c1ccccc1 (stereo unspecified)
    0, 1.5%, 1%, 7%
- O=C(N/N=C/c1ccc(Cl)c([N+](=O)[O-])c1)C1CC1
    0, 2.4%, 0%, -13%
- COC(=O)c1ccc(/C=N/NC(=O)CC(=O)NC2CCCCC2)cc1
    2, -3.8%, 0%, -4%
- Cc1cccc(C)c1NC(=O)C(NC=O)c1ccc(Cl)cc1 (stereo unspecified)
    -4, -0.7%, -3%, -1%
- O=C(Cc1ccccc1[N+](=O)[O-])NC1CCN(Cc2ccccc2)CC1
    ·, -1.1%, 0%, 3%
- O=C(NC[C@@H]1CC[C@@H](Cc2ccc(-c3ccccc3)cc2)O1)Nc1ccc(Br)cc1
    ·, -1.9%, ·, 10%
- O=C(NNC(=O)c1n[nH]c(=O)c2ccccc12)c1ccc(Br)cc1
    7, 0.4%, 0%, 12%
- Cc1occc1C(=O)Nc1cc(C(F)(F)F)ccc1Cl
    -5, 5.4%, -3%, -15%
- N=c1ccn2c(n1)O[C@H]1[C@H](O)[C@@H](CO)O[C@H]12
    -8, -0.9%, 7%, -10%

# 5 compounds from above, arranged by their value in Rango complex inh, descending.
# Below each SMILES – GLA inh pH 4.5, Rango complex inh, miR-21 reporter, Rango release inh
- Cc1occc1C(=O)Nc1cc(C(F)(F)F)ccc1Cl
    -5, 5.4%, -3%, -15%
- Cc1ccc(NC(=O)C(=O)NCc2ccco2)c(C)c1
    -4, 2.7%, -42%, -13%
- COc1ccc(S(=O)(=O)N(CC(=O)NCc2ccco2)c2ccccc2)cc1OC
    -3, 0.4%, -7%, 10%
- Cc1cccc(C)c1NC(=O)C(NC=O)c1ccc(Cl)cc1 (stereo unspecified)
    -4, -0.7%, -3%, -1%
- O=C(NC[C@@H]1CC[C@@H](Cc2ccc(-c3ccccc3)cc2)O1)Nc1ccc(Br)cc1
    ·, -1.9%, ·, 10%

# (next part)
# Below each SMILES – GLA inh pH 4.5, Rango complex inh, miR-21 reporter, Rango release inh
- Cc1sc(NC(=O)CSc2nnc(N)s2)c(C#N)c1C
    ·, 0.0%, -8%, 4%
- O=C1CCC(=O)N1OCCCOc1ccccc1
    -6, -0.3%, 1%, 0%
- CC(=O)Nc1ccc(NC(=O)C(C)OC(=O)C(C)SCC(=O)Nc2ccc(F)cc2)cc1 (stereo unspecified)
    ·, -0.5%, ·, -9%
- COc1ccc(C(=O)NCC(O)COc2ccc(C(C)(C)C)cc2)cc1[N+](=O)[O-] (stereo unspecified)
    -6, ·, 8%, ·
- O=C(COn1nnc2ccc(C(F)(F)F)cc21)Nc1nnc(-c2ccccc2)o1
    -7, 2.8%, -1%, -2%
- CC1CCC2C(=O)N(c3ccccc3OC(=O)c3ccccc3)C(=O)C2C1 (stereo unspecified)
    1, 0.1%, 13%, -9%
- O=S(=O)(c1ccc(F)cc1)N1CCN(c2ccccc2)CC1
    -5, -3.5%, -5%, -15%
- COc1ccc(NC(=O)C2CCCN(S(=O)(=O)c3ccccc3)C2)c(OC)c1 (stereo unspecified)
    ·, 2.5%, 11%, -10%
- CC1CCC(NC(=O)CCN2C(=O)C3CC=CCC3C2=O)CC1 (stereo unspecified)
    ·, -1.7%, ·, 8%
- CCn1c(=O)c(C(=O)CN(C)Cc2cccc(OC)c2OC)c(N)n(Cc2ccccc2)c1=O
    -3, ?, -3%, -7%
- N#C/C(=N\O)c1nc(-c2ccccc2)cs1
    8&-1, 3.4%&2.2%, -19%&-8%, -1%&-3%
- Cc1ccccc1-n1ccnc1SCC(=O)O
    2, 0.0%, 0%, -12%
- CC1CN(c2oc(-c3cccs3)nc2C#N)CC(C)O1 (stereo unspecified)
    17, -0.8%, -7%, 1%
- O=C(NCc1ccccc1F)c1ccc(S(=O)(=O)Nc2cccc(C(F)(F)F)c2)cc1
    9, 0.8%, 14%, -7%
- CCn1c2ccc(F)cc2c2nnc(SCCN3CCOCC3)nc21
    ·, -2.5%, -24%, 0%
- Cc1cnc(C(=O)Nc2nc(-c3ccccc3)cs2)cn1
    2, -0.1%, -11%, 27%
- CCCn1c(C)cc(/C=C(\C#N)C(=O)OCC(=O)Nc2cccc(OC)c2)c1C
    -2, ?, -23%, ?
- CCSc1nnc2c3cc(CC)ccc3n(C)c2n1
    ·, 1.5%, -21%, ?
- COc1cccc(C2=NOC(C(=O)Nc3cccnc3)C2)c1 (stereo unspecified)
    10, -0.7%, 2%, 6%
- O=C(c1cc(-c2cccs2)nc2ccccc12)N1CCN(CCO)CC1
    ·, -0.8%, ·, -14%
- CNC(=O)C(Sc1nc(C)nc2c1oc1ccccc12)C(C)=O (stereo unspecified)
    -2, ?, -11%, ?
- O=C1CN2NC(=S)N(c3ccccc3)C2=CN1c1ccc(Cl)cc1
    5, 2.5%, -1%, -4%
- CCOC(=O)C1=C(c2ccccc2)Nc2ncnn2C1c1cc(OC)cc(OC)c1OC (stereo unspecified)
    7, 3.5%, -4%, 3%
- Cc1ccc(C(=O)Nc2cccc(C(=O)O)c2)cc1S(=O)(=O)N1CCCCC1
    4, 0.5%, -33%, -12%
- CCN1CCCC1CNS(=O)(=O)c1cc(Br)cc2c1N(C(=O)C1CC1)CC2 (stereo unspecified)
    9, -0.2%, -10%, -9%
- CCN1CCCc2cc(CN(CCN3CCOCC3)C(=O)Nc3ccc(C)c(C)c3)ccc21
    1, 2.2%, -12%, -10%
- NC(=O)Nc1ccc(F)cc1
    1, 0.9%, -4%, 2%
- O=c1cc(CCc2ccccc2)oc2cccc(O)c12
    ·, -2.1%, ·, -12%
- CCNC(=S)NNC(=O)c1ccc(S(=O)(=O)NCc2ccco2)cc1
    ·, 3.3%, ·, 14%
- COc1ccc([N+](=O)[O-])cc1NS(=O)(=O)c1cc(C(=O)N2CCN(C)CC2)ccc1OC
    ·, -3.5%, ·, -7%

# An excerpt; count on the stated rates, not on these rows.
